Bioassay records as filed in PubChem.
Bm FixLJ act: activators of Burkholderia fixLJ two-component system, primary screen, B. multivorans, GFP reporter; 0.3% of 29,000 active; z-score (no concentration beside the values); B. multivorans fixK-promoter GFP reporter, 18 h; hits give high values; AID 1918990, 2023;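 active means replicate mean overnight rise in green fluorescent reporter signal, 3 or more SD over negative controls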;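 further: score is relative to vehicle wells of the plate; 300 nL library stock went into each well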
An asterisk follows results filed as active; & = joins results of further samples.

SMILES	Bm FixLJ act
CCCN1CCN(C(=O)c2ccc(NC(C)=O)cc2O)CC1=O	-0.82
CCC1(C2=NCCN2)Cc2ccccc2O1 (stereo unspecified)	-2.03
COc1ccc(NC(=O)c2ccco2)cc1NC(=O)c1ccc(OC(C)C)cc1	-0.9
CCOc1cc(CNc2ccc(O)cc2)cc(Br)c1OCc1ccccc1	2.36
O=C(CCCn1c(=O)[nH]c2ccsc2c1=O)N1CCN(c2cccc(C(F)(F)F)c2)CC1	0.61
COc1ccc(S(=O)(=O)N(CC(=O)N2CCc3ccccc3C2)c2ccc(C)cc2)cc1	0.03
COc1cc2ccccc2cc1C(=O)Nc1cccc(-c2nc3cc(C)c(C)cc3o2)c1	-0.28
CCc1ccc(S(=O)(=O)N(C(C)=O)c2ccc3oc4c(c3c2)CCCC4)cc1	-1.5
Cn1c(=O)n(C)c2cc(NS(=O)(=O)c3ccc(F)cc3)ccc21	-0.72
CC(C)C(=O)N(Cc1ccccc1)S(=O)(=O)c1ccc2c(c1)oc(=O)n2C	0.35
O=C(Nc1ccc2oc(-c3ccccc3)nc2c1)c1ccc2ccccc2c1	-1.17
CCCCOC(=O)c1ccc(NC(=O)c2sc3nc(C)cc(C)c3c2N)cc1	0.49
Oc1ccccc1-c1nc2ccc(Cl)cn2c1Nc1ccc2c(c1)OCCO2	0.97
O=C(NCCc1ccn[nH]1)C1CCC(=O)N(C2CCCC2)C1 (stereo unspecified)	-2.73
Cc1ccccc1OCc1nc2ccccc2n1Cc1ccccc1Cl	-0.01
CCC(=O)N1c2ccc(S(=O)(=O)NCc3ccc(F)cc3)cc2CC1C (stereo unspecified)	-0.37
CC(=O)Nc1ccc(-c2cc(C(=O)O)c3c(-c4ccccc4)[nH]nc3n2)cc1	-1.67
CCOc1ccc(-n2ccn3c(CC(C)CC(=O)O)nnc3c2=O)cc1 (stereo unspecified)	1.09
C=CCOc1ccc(C2c3c(oc4ccc(C)cc4c3=O)C(=O)N2CCCN2CCOCC2)cc1 (stereo unspecified)	-1.14
COc1ccc(NC(=O)c2c(C)oc3ccc(O)c(CN4CCN(C)CC4)c23)cc1Cl	-1.65
CCC1CCCCN1CCCNC(=O)c1ccc2c(c1)N(Cc1ccccc1)C(=O)c1ccccc1S2(=O)=O (stereo unspecified)	-1.06
COC(=O)c1cc2oc3ccccc3c2n1Cc1nc(-c2cccc(Cl)c2)oc1C	1.66
COc1ccc(S(=O)(=O)NC(C)(C)CO)cc1-c1nnc2c3ccccc3c(C)nn12	-1.37
CCCCOc1ccc(S(=O)(=O)N2CCN(c3ccccc3OCC)CC2)cc1	2.51
CC(=O)Nc1ccc(NC(=O)CCc2c(C)nc3c(c(C)nn3-c3ccc(C)cc3)c2C)cc1	-1.15
Next part:
SMILES	Bm FixLJ act
Cc1ccc(-c2nnc(SCc3ccccc3C#N)o2)cc1	0.03
COc1ccc(NC(=O)CSc2ncc3c(n2)-c2ccccc2N(Cc2ccc(C)cc2)S3(=O)=O)cc1Cl	-0.6
CNC(=O)c1ccc(Cl)c(NC(=O)N(C)Cc2noc(CC(C)C)n2)c1	2.3
Cc1ccc(N2CCN(C(=O)c3cn(C)c4ccc(S(=O)(=O)N5CCC(C)CC5)cc4c3=O)CC2C)cc1 (stereo unspecified)	0.78
COc1ccc(NC(=O)c2nnn(CC(=O)Nc3cc(C)cc(C)c3)c2N)c(OC)c1	-1.78
Cc1ccc(N2C(=O)c3n[nH]c(C)c3C2c2ccccc2Cl)cc1 (stereo unspecified)	-0.99
Cc1c(Cl)cccc1NC(=O)CSc1ncc(S(=O)(=O)c2ccc(C(C)C)cc2)c(=O)[nH]1	-0.53
CSc1ccc(CCNC(=O)Cn2c(C)c3cnn(-c4ccccc4)c(=O)c3c2C)cc1	-1.28
Cc1ccc(C)c(N2CCN(C(c3ccccc3)c3nnc(-c4ccccc4F)o3)CC2)c1 (stereo unspecified)	-0.45
COc1ccccc1NC(=O)C1=C(C)Nc2nc(SCc3ccccc3Cl)nn2C1c1ccccn1 (stereo unspecified)	0.4
COC(=O)c1ccccc1NC(=O)N(Cc1ccc(C)cc1)Cc1cccn1-c1nnc(N2CCCC2=O)s1	1.31
O=C(Nc1ccccc1Br)C(Cc1ccccc1)NS(=O)(=O)c1cccc2nsnc12 (stereo unspecified)	-0.1
Cc1nc(C2CCCN(C(=O)NCCCN3CCCc4ccccc43)C2)n[nH]1 (stereo unspecified)	0.84
O=C(Cn1ncc2c3ccccc3n(Cc3cccc(Cl)c3)c2c1=O)NCCC1=CCCCC1	13.1*
CCn1c(=O)cc(OCC(=O)N(C)c2cc(Cl)ccc2C)c2ccccc21	0.29
COc1cccc(-n2c(-c3ccco3)nc3c(cnn3-c3ccccc3C)c2=O)c1	-1.77
COc1ccc(CCNC(=O)c2ccc3c(c2)N(Cc2ccc(F)cc2)CCS3)cc1OC	-0.42
CC(C)c1ccc(Nc2cc(C(=O)NCCc3ccccc3)c3ccccc3n2)cc1	0.34
CCCN(CCC)CCNC(=O)c1cc2c(-c3ccccc3F)nn(C)c2s1	-2.01
Cc1ccc(S(=O)(=O)N2CC=C(c3c(C)n(CC(=O)N4CCCC4)c4ccccc34)CC2)cc1C	-3.32
Cn1c(C(=O)N2CC(O)C(Cc3ccccn3)C2)cc2cccc(Cl)c21 (stereo unspecified)	-0.81
CCOC(C)(C)C(=O)N1CCC2(CC1)OCCc1c2[nH]c2ccccc12	-0.95
COc1ccccc1NC(=O)CC1Sc2ccc(C(F)(F)F)cc2NC1=O (stereo unspecified)	-0.61
Cc1ccccc1NC(=O)c1c(NC(=O)C(F)(F)F)sc2c1CCCCC2	-4.54
O=C(O)C1CC(C(=O)N2CCCC2)CN(Cc2ccccc2)C1 (stereo unspecified)	-2.2
Going on with the list:
SMILES	Bm FixLJ act
CCN1CCN(C(=O)c2ccc3c(c2)N(Cc2ccc(Cl)cc2)C(=O)c2ccccc2S3(=O)=O)CC1	-2.01
COc1cc(C2c3c(oc4ccccc4c3=O)C(=O)N2c2nncs2)cc(OC)c1OC (stereo unspecified)	0.25
COc1ccc(C(=O)NC(c2ccc3c(c2)CCO3)C2CC(O)C2)c(O)c1 (stereo unspecified)	0.31
Cn1nnnc1SCC1=C(C(=O)O)N2C(=O)C(NC(=O)C(OC=O)c3ccccc3)C2SC1 (stereo unspecified)	-1.36
COc1ccc(N2CCN(C(=O)c3cc4cc5ccc(Cl)cc5nc4o3)CC2)cc1	-0.08
Cc1noc(C)c1-c1ccc(S(=O)(=O)N2CCCN(C)CC2)s1	-1.36
CCOc1ccc(NC(=O)c2oc3ccccc3c2NC(=O)Cc2ccc(OC)c(OC)c2)cc1	-0.01
COc1ccc(NC(=O)Cn2cc(S(=O)(=O)c3ccccc3)c(=O)c3cc(C)ccc32)cc1Cl	-1.97
O=C(Nc1ccc(-c2nc3cc(Cl)ccc3o2)cc1)c1cc2ccccc2o1	-0.32
CCc1ccc2oc(C(=O)N(Cc3cccc(Cl)c3)Cc3ccco3)c(C)c2c1	0.23
COC(=O)CSc1nnc2n(-c3ccccc3)c(=O)c3c4c(sc3n12)COC(C(C)C)C4 (stereo unspecified)	-1.27
COC(=O)NC(C)C(=O)N1CCC2(CC1)C(=O)Nc1ccccc12 (stereo unspecified)	-0.26
Cc1cc2nc(-c3cccc(NC(=O)COc4ccc(C(C)C)cc4)c3)oc2cc1C	-0.29
CCc1noc(CCNC2CCN(Cc3ccccc3)CC2)n1	0.51
COc1cc(C(=O)NCCn2nc(C(F)(F)F)cc2C)ccc1F	-1
Cc1cnc(CNC(=O)Nc2ccccc2CCC(=O)N(C)C)cn1	0.68
CCc1cc(C(=O)NC(C)c2ccccc2)no1 (stereo unspecified)	-1.51
CCN(CC)c1ccc(NC(=O)CSc2nc(-c3cccs3)cc(C(F)(F)F)n2)cc1	1.27
O=C1CC(c2nnc(Cc3cccc(Cl)c3)o2)CN1c1ccccc1 (stereo unspecified)	0.45
COc1cccc(C2C(C(=O)Nc3ccc(Cl)cc3)=C(C)Nc3nc4ccccc4n32)c1 (stereo unspecified)	-0.73
Cc1c(F)cccc1CN1CCCC(c2nnc(Cn3ccnc3)n2C)C1 (stereo unspecified)	-0.37
Clc1ccc(-c2nc3ncccn3c2Nc2ccc3c(c2)OCCO3)cc1	-0.11
Cc1cc(CC2CN(C(=O)CCC(=O)N(C)C3CCCCC3)CC2O)on1 (stereo unspecified)	-0.28
CCSc1ncc(Cl)c(C(=O)Nc2cccc(Cl)c2)n1	0.22
CCOc1ccc(NC(=O)CSc2nnc3scc(-c4ccccc4)n23)cc1	-4.1
Additional entries follow.
SMILES	Bm FixLJ act
Cc1ccc(-n2nnc3c(sc4nc(C)c(C)cc43)c2=O)cc1Cl	-1.19
CCc1ccc(C2c3c(-c4cc(C)ccc4O)n[nH]c3C(=O)N2Cc2cccnc2)cc1 (stereo unspecified)	-1.45
CC1=C(C(=O)Nc2ccccc2)C(c2cccnc2)n2nc(SCc3ccccc3Cl)nc2N1 (stereo unspecified)	-1.65
Cc1cccc(-c2nnn3c2nc(NCCC(C)C)c2ccccc23)c1	-0.89
O=C1CC(c2cccc(O)c2)c2cc3c(cc2N1)OCO3 (stereo unspecified)	-0.39
O=C(Nc1c(C(=O)Nc2ccc(F)cc2)oc2ccccc12)c1ccccc1F	0.79
CCn1c(=O)c(=O)n(CC)c2cc(N3CCCCC3)c(NC(=O)c3ccc(Cl)cc3)cc21	15.3*
Cc1cc(Cl)ccc1OCc1nc(-c2ccc(-n3cccc3)cc2)no1	-1.29
CCOC(=O)c1cc2c(=O)n3ccccc3nc2n(CCCOC)c1=NC(=O)c1c(-c2c(F)cccc2Cl)noc1C	-1.08
Cc1cnn(CC(=O)NCC2CCCN(C(=O)Cc3c(C)nc(C)[nH]c3=O)C2)c1 (stereo unspecified)	-0.02
CCCN(CCC)C(=O)Cn1c(=O)n(-c2ccccc2)c(=O)c2c3c(sc21)CCCC3	-0.63
Cc1cc(N2CCC(C(=O)Nc3ccc(F)cc3F)CC2)n2nc(C)c(-c3ccc(Cl)cc3)c2n1	-1.14
Cc1cn2c(=O)cc(COc3ccccc3NC(=O)c3ccc(Cl)cc3)nc2s1	-0.68
CCc1ccc(CNc2ncc(-c3cccc(OC)c3)n2C)cc1	-3.31
Cc1ccc(-c2nnc(Nc3cccc(O)c3)c3ccccc23)cc1S(=O)(=O)N1CCOCC1	-1.34
COCC(=O)Nc1ccc(NC(=O)c2cc(CC(C)C)[nH]n2)cc1C	-2
Cc1ccc(-c2cnc(NCc3c(F)cccc3Cl)n2C)cc1	-2.77
Cc1cccc(NC(=O)CCCCCn2c(=O)[nH]c3ccsc3c2=O)c1	-0.9
COc1ccc(S(=O)(=O)N(CC(=O)Nc2cc(C)cc(C)c2)c2ccc(Cl)cc2)cc1	0.85
Cc1ccc(C(=O)N2CCC(c3c[nH]c4ccccc34)(c3c[nH]c4ccccc34)CC2)cc1	-0.02
CCOc1ccc(C(=O)c2cn(Cc3ccc(Cl)cc3)c3cc(OC)c(OC)cc3c2=O)cc1	-0.5
CN(C)CCCO[C@H]1[C@@H](C(O)CO)OC2OC(C)(C)O[C@@H]21 (stereo partly specified)	0.04
CN(C(=O)C(Cl)Cl)c1ccc(OC(=O)c2ccco2)cc1	-1.82
COc1cc(NC(=O)CSc2c3c(nc4ccccc24)CCC3)cc(OC)c1OC	-0.17
Cc1nc(C(N)C(C)C)n(CC(=O)NCCc2ccco2)n1 (stereo unspecified)	2.04
(further entries)
SMILES	Bm FixLJ act
O=C(O)c1ccc(NC(=O)c2ccc(Cl)c(S(=O)(=O)N3CCCCCC3)c2)cc1	0.27
CC(C)Oc1cccc(C2CC(=O)Nc3cc4c(cc32)OCO4)c1 (stereo unspecified)	0.68
Cc1ccc2oc(C(=O)Nc3c(C(=O)Nc4cccc(Cl)c4)oc4ccccc34)cc(=O)c2c1	-0.65
CCOC(=O)c1c(-c2ccccc2)oc2ccc(OCc3ccc(C)cc3)cc12	0.75
Brc1ccc(-c2noc(-c3ccccc3)n2)o1	-1.12
O=C(c1cnc2c(c1)COc1ccc(Cl)cc1-2)c1ccccc1O	1.64
CC1Oc2cc(NC(=O)NCc3cn4c(n3)SCC4)ccc2N(C)C1=O (stereo unspecified)	0.04
CC(=O)N1CCc2c(sc3c2c(=O)n(CCc2ccccc2)c(=O)n3CC(=O)Nc2ccccc2F)C1	1.12
Cc1cc(C(C)(C)C)cc(S(=O)(=O)NC(c2nccn2C)C2CC2)c1C (stereo unspecified)	-0.4
CC(C)OC(=O)CCC/C=C\C[C@@H]1[C@@H](CC[C@@H](O)CCc2ccccc2)[C@H](O)C[C@@H]1O	-0.59
Cc1cccc(NC(=O)Cn2cc(C(=O)c3ccco3)c3ccccc32)c1C	-1.58
O=C1NC(=O)C(c2ccccc2)(c2ccccc2)N1	-1.06&0.19

A section from further up:
SMILES	Bm FixLJ act
CN(C(=O)C(Cl)Cl)c1ccc(OC(=O)c2ccco2)cc1	-1.82
COc1cc(NC(=O)CSc2c3c(nc4ccccc24)CCC3)cc(OC)c1OC	-0.17
Cc1nc(C(N)C(C)C)n(CC(=O)NCCc2ccco2)n1 (stereo unspecified)	2.04
O=C(O)c1ccc(NC(=O)c2ccc(Cl)c(S(=O)(=O)N3CCCCCC3)c2)cc1	0.27
CC(C)Oc1cccc(C2CC(=O)Nc3cc4c(cc32)OCO4)c1 (stereo unspecified)	0.68
Cc1ccc2oc(C(=O)Nc3c(C(=O)Nc4cccc(Cl)c4)oc4ccccc34)cc(=O)c2c1	-0.65
CCOC(=O)c1c(-c2ccccc2)oc2ccc(OCc3ccc(C)cc3)cc12	0.75
Brc1ccc(-c2noc(-c3ccccc3)n2)o1	-1.12
O=C(c1cnc2c(c1)COc1ccc(Cl)cc1-2)c1ccccc1O	1.64
CC1Oc2cc(NC(=O)NCc3cn4c(n3)SCC4)ccc2N(C)C1=O (stereo unspecified)	0.04
CC(=O)N1CCc2c(sc3c2c(=O)n(CCc2ccccc2)c(=O)n3CC(=O)Nc2ccccc2F)C1	1.12
Cc1cc(C(C)(C)C)cc(S(=O)(=O)NC(c2nccn2C)C2CC2)c1C (stereo unspecified)	-0.4
CC(C)OC(=O)CCC/C=C\C[C@@H]1[C@@H](CC[C@@H](O)CCc2ccccc2)[C@H](O)C[C@@H]1O	-0.59
Cc1cccc(NC(=O)Cn2cc(C(=O)c3ccco3)c3ccccc32)c1C	-1.58
O=C1NC(=O)C(c2ccccc2)(c2ccccc2)N1	-1.06&0.19

The list is partial; rates above refer to the full screens.
